# 2A Renilla – Primary qHTS Assay for Foot and Mouth Disease Virus Antivirals against NCGC Sytravon and CBC Compound Libraries: Renilla Luciferase Signal; HEK cells with a luciferase reporter of 2A StopGo recoding; Potency, µM (doses to about 57.5 µM), for the others: at the top dose signal change, negative = less light; 0.32% of 120,000 active; AID 1745857, 2022; active means well fitted falling curve with a large enough effect; inconclusive means small, poorly fitted or top-dose-only effect; inactive means no such curve, though single readings can be large or run the other way; note: nearly all actives have a fitted effect of over 55% in size; overnight with compound
# 2A firefly – Primary qHTS Assay for Foot and Mouth Disease Virus Antivirals against NCGC Sytravon and CBC Compound Libraries: Firefly Luciferase Signal | HEK cells with a luciferase reporter of 2A StopGo recoding | Potency, µM (series often up to 57.5 µM), inactives show at the highest dose signal change, negative = less light | 0.23% of 120,000 active; active = well fitted falling curve with a large enough effect; inconclusive = small, poorly fitted or top-dose-only effect; inactive = no such curve, though single readings can be large or run the other way; note: nearly all actives have a fitted effect of over 60% in size; overnight with compound
# The depositor's hits bear a star; ? = inconclusive; & = joins results of further samples; [ ] = remark or other dose. % is set by controls: 0 for no effect and ±100 for the full control effect; potency is the fitted concentration of half-maximal effect. These rows are one share of the data, so the mix of outcomes need not match the whole.
SMILES,2A Renilla,2A firefly
COc1cc(/C=C/c2ccc3ccccc3n2)cc(OC)c1O,7%,25%
Cc1cc(OCC(=O)N2CCCCC2CCN2CCCCC2)cc(C)c1Cl (centres undefined),-8%,-6%
COc1ccc2c(COC(=O)c3ccc4ccccc4c3O)cc(=O)oc2c1,-11%,-10%
CCN1CCCC1CNC(=O)C(O)(c1ccccc1)c1ccccc1 (centres undefined),-12%,-21%
CCOc1ccccc1CNC(=O)c1ccc2c(c1)nc1n2CCC(C)C1 (centres undefined),-12%,20%
N#Cc1ccc(C(=O)/C=C/c2ccc3c(c2)OCCO3)cc1,23%,10%
COc1cc(C)c(S(=O)(=O)N2CCN(c3cc(N4CCCC4)nc(C)n3)CC2)cc1C,88%[activator],18%
CCCCN(CC)CCCNC(=O)c1ccc2c(c1)NC(=O)CN2C,0%,-16%
O=C(COc1ccc(Cl)cc1)Nc1ccccc1C(=O)OCc1cc(=O)n2ccsc2n1,-11%,3%
CCOc1ccc2nc(Nc3nc(C)cc(=O)[nH]3)nc(C)c2c1,3%,9%
CC[N+]1(CC=C(C)C)CCCCC1,8%,-1%
O=C(NCc1ccc(F)cc1)c1cc2cc(Cl)ccc2[nH]1,-8%,1%
COc1ccccc1/C=C/C(=O)Oc1c(C)ccc(C)c1C,0%,24%
CN(C)c1ccc(C(CNS(=O)(=O)c2ccc(F)cc2)N2CCc3ccccc32)cc1 (centres undefined),23%,0%
Cc1ccc2c(c1)-c1c(cnn1CC(=O)N1CCN(c3cc(C)ccc3C)CC1)CO2,-7%,-17%
CC(=O)c1c(C)[nH]c(C(=O)Nc2ccc(C)c(S(=O)(=O)N(C)C)c2)c1C,219%[activator],136%[activator]
O=c1c(Cl)c(N2CCN(Cc3nc(-c4ccsc4)no3)CC2)cnn1-c1ccccc1,-24%,-20%
CCCc1ccc(OCC(=O)Nc2ccc(Cl)cc2C(=O)c2ccccc2)cc1,12%,3%
Cc1cccc(N2CCN(C(=O)c3c4c(nc5ccccc35)C(=O)N(C3CCCCC3)C4)CC2)c1C,-9%,-18%
Fc1ccc(-c2nc3ccccc3o2)cc1,18%,95%[activator]
O=C(Nc1ccc(F)c(F)c1F)C12CC3CC(CC(Cl)(C3)C1)C2,20%,1%
O=C(Cn1cnc2sccc2c1=O)N1CCOCC1,-1%,4%
CC(C)(C)OC(=O)N1Cc2ccccc2C[C@H]1C(=O)NCC(=O)Nc1ccc2c(c1)OCO2,0%,0%
CC1CCN(c2nc3c(c(=O)[nH]c(=O)n3C)n2CCSc2nc3ccccc3[nH]2)CC1,6%,6%
COc1ccccc1N1CCN(c2nc3c(S(=O)(=O)c4ccccc4)nnn3c3ccc(Cl)cc23)CC1,7%,-1%
N#Cc1ccc(OCC(=O)NOCc2ccccc2)cc1,2%,20%
O=C(CSc1ccccc1)OCc1cc(=O)n2nc(C3CC3)sc2n1,7%,12%
CN(Cc1cccs1)C(=O)c1ccc(S(C)(=O)=O)cc1,0%,5%
Cc1ccc(-c2nc(SCCOc3ccccc3C)n3[nH]c(=O)cc3n2)cc1,-9%,9%
CCCOc1ccc(NC(=O)C(C)Oc2ccc(C)c(C)c2)c2cccnc12 (centres undefined),-9%,-2%
Cc1ccc2c(Cl)cc(Cl)c(OCc3nccn3C(F)F)c2n1,-9%,21%
Cc1ccc(N2C(=O)CSC23C(=O)N(CC(=O)Nc2ccc(C)cc2C)c2ccccc23)cc1 (centres undefined),-5%,-21%
CCc1ccccc1NC(=O)N1CCN(Cc2ccc(Cl)s2)CC1,-6%,3%
COC(=O)c1ccc(COC(=O)c2ccc3c(c2)NC(=O)CS3)cc1,-10%,12%
COc1cc(C(=O)Nc2sc3ccccc3c(=O)c2-c2ccccc2)cc(OC)c1OC,12%,16%
O=C(CSc1cc(Cl)ccc1Cl)NC1CCS(=O)(=O)C1 (centres undefined),-12%,-5%
O=C(OC1CCCCC1=O)c1cccc(Br)c1 (centres undefined),-9%,15%
COc1ccc(SCc2cc(=O)c3ccc(C)c(C)c3[nH]2)cc1,-14%,-19%
CCN(CC)C(=O)CSc1nc2cc3c(cc2c(=O)n1CCCC(=O)NCc1ccc(OC)cc1)OCO3,-7%,-19%
CC1CCN(S(=O)(=O)N2CC=C(c3c[nH]c4ccccc34)CC2)CC1,6%,12%
CN(CC(=O)Nc1c(Cl)cccc1Cl)Cc1ncc(-c2ccc(F)cc2)o1,-1%,7%
O=C(Cc1ccccc1Cl)N1CCC(c2nc3c(nnn3Cc3ccccc3)c(=O)[nH]2)CC1,-20%,-12%
Cc1ccc(C)c(Cn2c(=O)c3c(nc4n3CCN4c3ccccc3)n(C)c2=O)c1,-6%,-5%
CCOc1ccccc1Nc1nc2ccccc2nc1NS(=O)(=O)c1ccc(F)cc1,-3%,4%
COc1ccc(C(C)=O)cc1CSCc1coc(-c2ccccc2)n1,-5%,0%
Cc1cc(CSc2ncccc2C(=O)Nc2ccnn2Cc2ccc(C)o2)no1,80%[activator],-4%
Cc1ccc2oc(C(=O)Nc3cccc(C(=O)N(C)C)c3)cc(=O)c2c1,-4%,5%
Cc1cccc(N2CCN(C(=O)c3nn(C)c4c3CS(=O)(=O)c3ccccc3-4)CC2C)c1 (centres undefined),38%[activator],-26%
COc1cccc(OC)c1C(=O)Oc1ccc2c(c1)O/C(=C\c1sccc1C)C2=O,-1%,?
CCOC(=O)C1CCN(C(=O)c2ccc3c(c2)N=C(CC)c2cc(C)ccc2S3)CC1,5%,18%

# Next compounds
SMILES,2A Renilla,2A firefly
CCOc1cc(CNCC(C)O)ccc1OCc1ccc(C)cc1 (centres undefined),-9%,11%
COc1cccc(C2C(=O)N(C3CCCCC3)CC(=O)N2CCc2ccc(OC)c(OC)c2)c1 (centres undefined),2%,-3%
CCOc1ccc(C(=O)NCCc2sc(-c3ccc(F)cc3)nc2C)cc1,1%,-2%
COc1cccc(CNc2nc3c(-c4cccc(C)c4)nnn3c3ccccc23)c1,-10%,61%[activator]
Nc1nc(Nc2cccc(C(F)(F)F)c2)sc1C(=O)c1ccccc1,10%&-8%,7%&-8%
COc1ccc(-c2nc(CS(=O)CC(=O)NCc3ccc(F)cc3)c(C)o2)cc1OC (centres undefined),70%&59%[activator],5%&14%
CN1CCN(c2ncnc3c2c(-c2ccccc2)cn3-c2cccc(Cl)c2)CC1,-6%,-3%
COc1cccc(NC(=O)Cn2cc(S(=O)(=O)N3CCCC3)c(S(=O)(=O)N3CCCC3)c2)c1,32%[activator],-6%
CC1=NN(c2cc(C)[nH]n2)C(c2ccccc2)C1 (centres undefined),-3%,5%
COc1ccc2c(c1)CCc1c(C(=O)Nc3ccc(C#N)cc3)noc1-2,-9%,-7%
CCN(CC)c1ccc(NC(=O)c2ccc(S(=O)(=O)Nc3ccccc3C)cc2)cc1,3%,8%
C=CCc1ccccc1OCC(O)Cn1nc(C(N)=O)c2ccccc2c1=O (centres undefined),33%[activator],-17%
Cc1c(-c2ccccc2)oc2c(C(=O)OCC(=O)Nc3ccccc3F)cccc2c1=O,5%,9%
N#Cc1nc(-c2ccc(F)cc2)oc1NCc1ccco1,21%,143%[activator]
COc1ccc(/C=C2\Oc3cc(OS(=O)(=O)c4ccccc4)ccc3C2=O)cc1,-15%,0%
Cc1ccc(S(=O)(=O)c2cnc(SCC(=O)Nc3ccc4c(c3)OCCO4)[nH]c2=O)cc1C,-14%,-2%
CC(Sc1nc2ccccc2o1)C(=O)NC1CCCC1 (centres undefined),14%,13%
COc1ccc(CNC(=O)C(=O)NCC(c2ccco2)S(=O)(=O)c2ccc(C)cc2)cc1 (centres undefined),-16%,-25%
O=C(CCCCCCCC(=O)NNC(=O)c1ccc(Cl)cc1)NNC(=O)c1ccc(Cl)cc1,-7%,13%
O=c1c(Cl)c(N2CCN(S(=O)(=O)c3ccc4c(c3)CCC4)CC2)cnn1-c1ccccc1,-11%,-8%
CC(C)c1cc(C(=O)NC2CC2)c2cnn(C(C)C)c2n1,-3%,-5%
CCOc1ccc(N)cc1OCC,-1%,8%
COc1ccc2nc(C)cc(Nc3ccc(C(=O)O)cc3)c2c1,-11%,-8%
CCOC(=O)Cn1c(=O)oc2cc(S(=O)(=O)N3CCN(c4cc(C)ccc4C)CC3)ccc21,0%,-8%
Cc1ccc2nc(-c3ccc(O)cc3)c(Nc3ccc4c(c3)OCO4)n2c1,-4%,8%
CC1=C(C(N)=O)C(c2ccccc2F)n2nc(-c3ccc(Cl)cc3)nc2N1 (centres undefined),1%,21%
Cc1ccc2oc(=O)cc(CN(C)CCO)c2c1,5%,18%
C=CCN(CC=C)C(=O)Nc1ccc(C(C)=O)cc1,10%,0%
COc1ccc(/C=C2\Oc3cc(OC(=O)C(C)(C)C)ccc3C2=O)c(OC)c1OC,9%,16%
CCCNCc1ccc(-c2ccc(Br)cc2)o1,4%,0%

# Grouped by structure: the compounds so far with a tert-butyl group
SMILES,2A Renilla,2A firefly
CC(C)(C)OC(=O)N1Cc2ccccc2C[C@H]1C(=O)NCC(=O)Nc1ccc2c(c1)OCO2,0%,0%
COc1ccc(/C=C2\Oc3cc(OC(=O)C(C)(C)C)ccc3C2=O)c(OC)c1OC,9%,16%

# Gathered by group, the compounds so far containing a Cl atom (16)
SMILES,2A Renilla,2A firefly
Cc1cc(OCC(=O)N2CCCCC2CCN2CCCCC2)cc(C)c1Cl (centres undefined),-8%,-6%
O=C(COc1ccc(Cl)cc1)Nc1ccccc1C(=O)OCc1cc(=O)n2ccsc2n1,-11%,3%
O=C(NCc1ccc(F)cc1)c1cc2cc(Cl)ccc2[nH]1,-8%,1%
O=c1c(Cl)c(N2CCN(Cc3nc(-c4ccsc4)no3)CC2)cnn1-c1ccccc1,-24%,-20%
CCCc1ccc(OCC(=O)Nc2ccc(Cl)cc2C(=O)c2ccccc2)cc1,12%,3%
O=C(Nc1ccc(F)c(F)c1F)C12CC3CC(CC(Cl)(C3)C1)C2,20%,1%
COc1ccccc1N1CCN(c2nc3c(S(=O)(=O)c4ccccc4)nnn3c3ccc(Cl)cc23)CC1,7%,-1%
Cc1ccc2c(Cl)cc(Cl)c(OCc3nccn3C(F)F)c2n1,-9%,21%
CCc1ccccc1NC(=O)N1CCN(Cc2ccc(Cl)s2)CC1,-6%,3%
O=C(CSc1cc(Cl)ccc1Cl)NC1CCS(=O)(=O)C1 (centres undefined),-12%,-5%
CN(CC(=O)Nc1c(Cl)cccc1Cl)Cc1ncc(-c2ccc(F)cc2)o1,-1%,7%
O=C(Cc1ccccc1Cl)N1CCC(c2nc3c(nnn3Cc3ccccc3)c(=O)[nH]2)CC1,-20%,-12%
CN1CCN(c2ncnc3c2c(-c2ccccc2)cn3-c2cccc(Cl)c2)CC1,-6%,-3%
O=C(CCCCCCCC(=O)NNC(=O)c1ccc(Cl)cc1)NNC(=O)c1ccc(Cl)cc1,-7%,13%
O=c1c(Cl)c(N2CCN(S(=O)(=O)c3ccc4c(c3)CCC4)CC2)cnn1-c1ccccc1,-11%,-8%
CC1=C(C(N)=O)C(c2ccccc2F)n2nc(-c3ccc(Cl)cc3)nc2N1 (centres undefined),1%,21%

# Remaining list, next part
SMILES,2A Renilla,2A firefly
CCc1ccc2oc(-c3cc(NC(=O)c4cccnc4)cc(C)c3O)nc2c1,-5%&-14%,33%&33%[activator]
O=C1c2c(O)cccc2Cc2cccc(O)c21,-7%,-5%[11.5 µM]
CCOc1ccc2c(-c3ccccc3)cc(=O)oc2c1,27%,188%[activator]
O/N=C1\CCCCC1C1=CCCCC1 (centres undefined),9%,2%
Cc1cccc(C)c1NC(=O)C(=O)NCC(c1ccc2c(c1)OCO2)N1CCOCC1 (centres undefined),-7%,-17%
Cc1cccc(NC(=O)Nc2nnc(N3CCCC3)s2)c1,-4%,13%
O=C(NC1CCCCC1)c1ccc(Cn2c(SCc3ccc(F)cc3)nc3cccnc32)cc1,-2%,33%
CCC(CC)C(O)(C#Cc1ccccc1)c1ccccc1 (centres undefined),?,?
O=S(=O)(c1ccc(Cl)cc1)c1nc(-c2cccs2)oc1N1CCCCC1,-16%,-14%
COc1ccc(C)cc1NC(=O)CNC(=O)CNc1ccc(C)cc1Br,-14%,-19%
CCN1C(=O)c2ccccc2S(=O)c2ccc(C(=O)N3CCN(c4ccc(F)cc4)CC3)cc21 (centres undefined),-15%,-14%
CCC(Nc1ccc2oc(C)nc2c1)C(=O)Nc1ccc(F)cc1 (centres undefined),39%[activator],9%
COc1ccc2sc(N(Cc3cccnc3)C(=O)C3COc4ccccc4O3)nc2c1 (centres undefined),-8%,19%
Cc1c(NC(=O)c2cc(-c3ccc(Cl)cc3)on2)c(=O)n(-c2ccccc2)n1C,-1%,23%
Cc1nc(NC(=O)CN(C)S(=O)(=O)c2ccc(Cl)cc2)sc1C,-5%,-13%
Cc1ccc(CNc2nc3c(c(=O)n(C)c(=O)n3C)n2Cc2cccc3ccccc23)cc1,4%,12%
CC(NC(=O)c1cccc(S(=O)(=O)Nc2ccc3c(c2)OCO3)c1)c1cccc(Cl)c1 (centres undefined),177%[activator],8%
CCOCN(C(=O)Cn1c(CC(C)C)nc2ccccc21)c1c(C)cccc1CC,10%,0%
COCCn1c(=O)c2c(nc(-n3nc(C)c(C)c3C)n2CCOC)n(C)c1=O,1%,-10%
COC(=O)c1ccc(OC)cc1OCc1ccccc1C#N,26%,16%
CCC1CCc2nc(N)c(C#N)c(-c3ccccc3Cl)c2C1 (centres undefined),-16%,-8%
COc1ccc(-c2nc(CN3C(=O)CN=C(c4ccccc4Cl)c4cc(Cl)ccc43)c(C)o2)cc1OC,-6%,-15%
Fc1ccc(CNc2ccc(F)c(Cl)c2)cc1F,-14%,-5%
Cc1ccccc1OCc1nnc(SCC(=O)NC2CCCCC2)n1C,0%,4%
CCN1c2ccccc2-c2nc(SCC(=O)Nc3cccc(C)c3C)ncc2S1(=O)=O,-10%,-13%
